Mtb H37Rv: Mycobacterium tuberculosis H37Rv growth inhibition, cell based, confirmatory dose response (AID 1949). inhibition, % at 10 µg/mL, or IC50 in µg/mL where a hit was titrated. hit rate 1.6% among 100,000. most inactive calls were filed without a number and no value below 0 was filed;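 active = confirmed in a dose series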;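 also: bacteria grown 7 days with compound before Alamar blue readout; 0% = untreated bacteria and 100% = reference antibiotic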
* hit, by the source's call; i = inactive. A portion of the library (hit frequency here may not be typical).

No.	mol	Mtb H37Rv
1	CC(=O)Nc1ccc(NC(=O)C2C3CCC(C3)C2C(=O)O)cc1 (stereo not drawn)	i
2	Cn1c(SCc2nc3ccccc3s2)nnc1-c1ccc2c(c1)OCO2	i
3	COc1ccc(C(=O)NC(=S)Nc2ccc(I)cn2)cc1Cl	i
4	N#C/C(=C/c1ccc2c(c1)OCO2)c1ccccc1F	i
5	O=C(CN1C(=O)C2C3CCC(C3)C2C1=O)Oc1ccc(Cc2ccccc2)cc1 (stereo not drawn)	i
6	COc1ccc(CNS(=O)(=O)c2ccc(OC)c(C)c2)cc1	i
7	COC(=O)c1c(NC(=S)NCc2ccco2)sc2c1CCC2	i
8	CSc1ccccc1NC(=O)c1ccco1	1%
9	CCOC(=O)CCc1c(C)c2ccc(OCC(=O)c3cccc([N+](=O)[O-])c3)c(C)c2oc1=O	i
10	COc1ccc(NC(=O)c2sc3nc(C)cc(C(F)(F)F)c3c2N)cc1	i
11	O=C(c1ccc(F)cc1)N1CCCCC(Sc2nnnn2-c2ccccc2)C1=O (stereo not drawn)	i
12	COc1ccc(NC(=S)NC2CCCCCC2)c(OC)c1	i
13	O=C(COc1ccccc1)OC12CC3CC(CC(C3)C1)C2	44%
14	COc1cccc(-c2nc(NC(C)=O)c3c(=O)oc4ccccc4c3n2)c1	i
15	CCOc1ccc(C(=O)Nc2ccccc2N2CCOCC2)cc1Cl	i
16	COC(=O)NNC(=S)Nc1ccc(Br)cc1	i
17	COc1cc(OC)cc(-c2n[nH]c(=S)o2)c1	i
18	N#CC1=C(N)Oc2n[nH]c(-c3cccc([N+](=O)[O-])c3)c2C12C(=O)Nc1ccccc12 (stereo not drawn)	0%
19	Cn1c(SCC(=O)Nc2ccc(Cl)cc2)nnc1-c1ccc(Cl)c(Cl)c1	i
20	CNC(=O)C1=C(C)NC(=S)NC1c1cccc(OC)c1OC (stereo not drawn)	i
21	CC1CCCN(C(=O)Cc2cccc3ccccc23)C1 (stereo not drawn)	i
22	CCCCN(CCCC)S(=O)(=O)c1ccc(NC(=O)c2ccco2)cc1	1%
23	O=C(COc1ccc(Cl)cc1)N1CCN(C(=O)c2ccco2)CC1	i
24	Cc1ccc(C(C)C)cc1S(=O)(=O)N1CCc2ccccc2C1	4%
25	Cc1cc(C(C)(C)C)ccc1OCCCNCCO	5%

Following part
No.	mol	Mtb H37Rv
26	COc1cccc(C2CC(=O)Nc3cc4c(cc32)OCCO4)c1OC (stereo not drawn)	i
27	O=C(CC1(O)C(=O)N(Cc2ccccc2)c2ccc(Cl)cc21)c1ccc2c(c1)OCCO2 (stereo not drawn)	i
28	CCCOc1ccc(C2NC(=S)NC(c3ccccc3)=C2C(=O)Nc2ccc(C)cc2)cc1OC (stereo not drawn)	5%
29	COc1ccccc1NC(=O)C1=C(C)NC(=S)NC1c1ccccc1F (stereo not drawn)	i
30	CCC(=O)Nc1ccc(S(=O)(=O)N2CCN(c3ccccc3)CC2)cc1	i
31	Cc1nc(SC(C)C(=O)Nc2ccc(Cl)cc2)n[nH]1 (stereo not drawn)	4%
32	CC(=O)Nc1nc2nc(C)c(Cc3ccccc3)c(=O)n2[nH]1	i
33	C=CCNC(=O)C1CC(=O)N(c2ccc(OCC(=O)Nc3ccccc3CC)cc2)C1 (stereo not drawn)	i
34	CCCC(CCC)C(=O)Nc1ccc(C(=O)OCC)cc1	2%
35	COc1ccc(N2CCN(C(=S)Nc3ccc(S(N)(=O)=O)cc3)CC2)cc1	i
36	COc1cc(Cl)c(S(=O)(=O)N2CC(C)CC(C)C2)cc1Cl (stereo not drawn)	i
37	CCOc1ccc(N2C(=O)CC(N3CCN(c4cc(Cl)ccc4C)CC3)C2=O)cc1 (stereo not drawn)	i
38	Cc1cc(C)cc(C(=O)NC(=S)Nc2cc([N+](=O)[O-])ccc2O)c1	0.4µg/mL*
39	Cc1c(NC(=S)NC(=O)c2ccc(Br)o2)c(=O)n(-c2ccccc2)n1C	i
40	CC(C)OC(=O)C1C2C=CC3(CN(Cc4ccco4)C(=O)C13)O2 (stereo not drawn)	i
41	COCCCNC(=O)c1ccccc1C(F)(F)F	i
42	CCOc1ccc(NC(=O)c2cc(-c3cccs3)nc3ccccc23)c([N+](=O)[O-])c1	i
43	c1ccc(CCc2nn3c(Cc4ccccc4)nnc3s2)cc1	i
44	Cc1c(C(=O)Nc2ccccc2)sc2ncn(CCOc3ccccc3)c(=O)c12	i
45	CC(C)(C)NCCOc1ccc(Cl)c(Cl)c1	i
46	COc1ccccc1NC(=O)CSc1nc2c(cc1C#N)C1CCN2CC1	10%
47	O=C(Nc1ccc(Cl)cn1)c1ccc(S(=O)(=O)c2ccccc2)cc1	i
48	CCc1sc(NC(=O)c2ccc(OC(C)=O)cc2)nc1-c1ccccc1	18%
49	CCN(CC)CCNC(=O)Cn1c(-c2ccccn2)nc2ccccc21	i
50	Cc1ccc(SCCNC(=O)c2ccc(Br)cc2)cc1	i

Next part
No.	mol	Mtb H37Rv
51	Cc1cc(C)n(S(=O)(=O)c2ccc(C3CCCCC3)cc2)n1	i
52	O=[N+]([O-])c1ccc(N2CCN(C(=S)Nc3ccc(Br)cc3)CC2)cc1	i
53	O=C(NCc1cccnc1)c1cccc(S(=O)(=O)N2CCOCC2)c1	i
54	CC(=O)Nc1ccc(S(=O)(=O)NCCC(=O)O)cc1	i
55	Cc1cc2ncc(-c3ccc(F)cc3)nc2cc1C	i
56	CC1(C(=O)Nc2nc3c(s2)CCCC3)Cc2ccccc2C(=O)O1 (stereo not drawn)	i
57	COc1ccccc1CNC(=O)CN(C)S(=O)(=O)c1cc(Cl)ccc1Cl	i
58	COc1c(S(=O)(=O)n2c(C)nc3ccccc32)ccc(Cl)c1Cl	i
59	c1ccc(OCc2nc(-c3ccccc3)no2)cc1	i
60	CCC12CN(C(=S)Nc3ccccc3)CC(CC)(CN(C(=S)Nc3ccccc3)C1)C2=O	4%
61	COc1ccc(CCC(=O)NCc2cccs2)cc1	1%
62	CC(C)c1ccc(N(CC(=O)Nc2ccccc2C(=O)N2CCCC2)S(C)(=O)=O)cc1	8%
63	O=C1c2ccccc2C(=O)N1C/C=C/CN1C(=O)c2ccccc2C1=O	i
64	CCOC(=O)c1c(NC(=O)c2ccccc2OC(C)=O)sc(C)c1C	i
65	CCN(CC)C(=O)C(=O)Nc1cccc(C(C)=O)c1	i
66	O=C(c1ccc2c3c(cccc13)CC2)N1CCc2ccccc21	5%
67	CC1Cc2cc(/C=C(/C#N)c3nc4ccccc4[nH]3)ccc2O1 (stereo not drawn)	2%
68	COc1cc(NC(=S)NC(=O)c2ccc(F)cc2Cl)ccc1-c1cc2ccccc2oc1=O	7%
69	COc1cc(CO)ccc1OCc1ccc(F)cc1Cl	4%
70	COc1ccc(CN2C(=O)C(O)(CC(=O)c3ccc(OC)c(OC)c3)c3ccccc32)cc1OC (stereo not drawn)	i
71	Cc1ccc(CN(c2ccc(C(=O)Nc3ccc4c(c3)OCO4)cc2)S(C)(=O)=O)cc1	i
72	COc1ccc(C(=O)NCCCn2ccnc2)cc1[N+](=O)[O-]	i
73	CCOC(=O)CCc1c(C)c2ccc(OCC(=O)Nc3ccc(C)cc3)cc2oc1=O	i
74	O=C(COc1ccc(Cl)cc1CO)Nc1ccc(F)cc1	5%
75	CC(=O)c1ccc(OC(=O)CCCN2C(=O)c3ccccc3C2=O)cc1	1%

Next structures:
nr	molecule	Mtb H37Rv
76	O=C(Nc1ccc(Br)c(Cl)c1)c1ccc(F)cc1	16µg/mL*
77	CCOC(=O)c1cnc2c(-c3ccc(Cl)cc3)cnn2c1C	i
78	COc1ccc(CN2C(=O)c3oc4ccc(F)cc4c(=O)c3C2c2ccccc2)cc1 (stereo not drawn)	i
79	O=S(=O)(c1cccc2cccnc12)N1CCN(C(c2ccccc2)c2ccccc2)CC1	i
80	CC(NC(=O)C1c2ccccc2Oc2ccccc21)C1CCCO1 (stereo not drawn)	i
81	CCOC(=O)c1nn(-c2cccc(C(F)(F)F)c2)c(=O)c2c(N)scc12	1%
82	CS(=O)(=O)N(CC(=O)Nc1ccc(Br)cc1)c1cccc([N+](=O)[O-])c1	1%
83	COc1ccc(Nc2nc(C)cc(C)c2C#N)cc1OC	i

(further entries)
nr	molecule	Mtb H37Rv
84	COc1ccc(S(=O)(=O)N2CCCC(C(=O)NC3CC3)C2)cc1Cl (stereo not drawn)	i
85	NC(=O)NNc1c2ccccc2nc2ccccc12	7%
86	N#Cc1ccc(C(=O)Nc2ccc(Cl)cn2)c(F)c1	2%
87	Cc1cc(C(=O)Nc2ccc3c(c2)OCO3)cs1	i
88	O=C(NCc1ccco1)C(=S)NCc1ccccc1	i
89	CS(=O)(=O)N(Cc1ccccc1Cl)c1ccc(C(=O)Nc2ccccc2C(=O)NCc2ccco2)cc1	2%
90	CCC(=O)N1CCN(c2ccccc2NC(=O)c2cccnc2)CC1	i
91	COc1ccc(NC(=O)CSc2nc(C)c(Cc3ccccc3)c(=O)[nH]2)cc1	i

Remaining list, next part
nr	molecule	Mtb H37Rv
92	Cc1cccc(NS(=O)(=O)c2ccc(Br)s2)n1	i
93	Cn1nnnc1SCC(=O)Nc1ccc(C#N)cc1	i
94	Cc1cc(C)c(NC(=O)C2CC=CCC2C(=O)O)c(C)c1 (stereo not drawn)	i
95	CCCCC(=O)Nc1ccc(C(=O)N2CCN(c3ccc([N+](=O)[O-])cc3)CC2)cc1	4%
96	CN(C)CCNc1nc2c(c(=O)n(C)c(=O)n2C)n1Cc1ccccc1F	1%
97	CCOC(=O)C1C(=O)Nc2nc3ccccc3n2C1C(C)C (stereo not drawn)	i
98	N#Cc1ccccc1S(=O)(=O)Nc1ccc(F)cc1	i
99	COc1ccc(C(=O)N2CCC(C(=O)Nc3ccccc3Cl)CC2)cc1	i

Carrying on.
nr	molecule	Mtb H37Rv
100	CCOC(=O)c1ccc(NC(=O)CSc2nnc(COc3ccccc3)n2C)cc1	i
101	O=C(Nc1c(Cl)cccc1Cl)C1Cc2ccccc2CN1S(=O)(=O)c1ccc(F)cc1 (stereo not drawn)	i
102	C=CCOc1cccc(C(=O)Nc2ccc(OCC)cc2)c1	i
103	O=C(CSc1nnc2scc(-c3ccccc3)n12)Nc1ccc2c(c1)OCCO2	i
104	COc1cccc(NC(=S)Nc2ccc(Cl)cc2C)c1	4%
105	COc1ccc(CCNC(=O)N2CCOCC2)cc1OC	i
106	CCCCC(=O)Nc1ccc(Br)cn1	18%
107	Cc1ccc2cccc(OCC(=O)NC(c3ccccc3)c3ccccc3)c2n1	5%

Look-ups from the list.
Value of #106 in Mtb H37Rv: 18%
Value of #107 in Mtb H37Rv: 5%
Value of #104 in Mtb H37Rv: 4%

More results.
nr	molecule	Mtb H37Rv
108	CC12CCC(O)CC1CCC1C2CCC2(C)C1CCC2(C)O (stereo not drawn)	0%
109	COc1cccc2sc(NC(=O)c3ccc(S(=O)(=O)N4CCCCC4)cc3)nc12	i
110	Cc1ccc(C(=O)Nc2ccc(N3CCCCC3)c(Cl)c2)c(C)c1	19%
111	C=CCN(CC=C)C(=O)CSc1nnc2c3ccccc3n(C)c2n1	i
112	CCNC(=O)N1c2c(C)cc(C)cc2C(C)=CC1(C)C	i
113	CCC(=O)c1cc(F)c(N2CCN(CC)CC2)cc1C	2%
114	Cc1cccc(-c2nc3n(n2)C(=O)CC(c2ccc(F)cc2)S3)c1 (stereo not drawn)	i
115	CCn1nccc1C(=O)Nc1nc2ccccc2n1CCN1CCCCC1	i

Given as labelled records: 2 of the compounds above.
[111] C=CCN(CC=C)C(=O)CSc1nnc2c3ccccc3n(C)c2n1
- Mtb H37Rv: i

[112] CCNC(=O)N1c2c(C)cc(C)cc2C(C)=CC1(C)C
- Mtb H37Rv: i

Further compounds follow:
nr	molecule	Mtb H37Rv
116	CC(=O)c1cccc(NC(=O)C2CCN(S(C)(=O)=O)CC2)c1	i
117	CCCOc1ccc(NC(=O)Nc2ccc(Cl)c(Cl)c2)cc1	4%
118	Cc1ccc(-n2nc3ccc(NC(=S)NC(=O)c4ccc(Cl)cc4)cc3n2)cc1	5%
119	Cc1ccccc1OC(C)C(=O)Nn1cnnc1 (stereo not drawn)	i
120	O=C(c1ccc([N+](=O)[O-])cc1)N(Cc1ccccc1)c1ccccn1	i
121	O=C(NCCc1cccc(Cl)c1)c1cccc(Cl)c1	i
122	O=C(CSCc1ccc(Br)cc1)NCc1ccncc1	2%
123	c1ccc(CN2CCC3(CC2)Nc2ccccc2CO3)cc1	i

(next part)
nr	molecule	Mtb H37Rv
124	CCOC(=O)CSc1ncnc2scc(-c3ccc(Br)cc3)c12	i
125	CN(Cc1nnc(SCC(=O)c2ccc(F)cc2)n1C)S(=O)(=O)c1ccccc1	i
126	CCn1cc(Br)c(C(=O)Nc2cc(C(F)(F)F)ccc2Cl)n1	i
127	COc1ccc(C(=O)NC(=S)Nc2ccccc2N2CCCC2)cc1[N+](=O)[O-]	3%
128	COc1ccc(NC(=O)CSc2nc3ccccc3c(=O)n2-c2ccc(C)cc2)c(OC)c1	i
129	COc1ccc(-c2csc(NC(=O)CSc3nc(-c4ccccc4)cc(=O)[nH]3)n2)cc1	i
130	O=C(CSc1ccc2ccccc2n1)Nc1ccc(F)cc1	i
131	CC1CCc2cc(F)ccc2N1S(=O)(=O)c1ccc([N+](=O)[O-])cc1 (stereo not drawn)	i
132	CSCCC(NC(=O)c1ccccc1)C(=O)NCc1ccc(C(C)(C)C)cc1 (stereo not drawn)	1%
133	Cc1ccccc1NC(=O)CC1NCCNC1=O (stereo not drawn)	i

Compounds shown so far that have a tert-butyl group:
nr	molecule	Mtb H37Rv
25	Cc1cc(C(C)(C)C)ccc1OCCCNCCO	5%
45	CC(C)(C)NCCOc1ccc(Cl)c(Cl)c1	i
132	CSCCC(NC(=O)c1ccccc1)C(=O)NCc1ccc(C(C)(C)C)cc1 (stereo not drawn)	1%

Part of the list above, with each value named.
125: CN(Cc1nnc(SCC(=O)c2ccc(F)cc2)n1C)S(=O)(=O)c1ccccc1
  Mtb H37Rv: i
126: CCn1cc(Br)c(C(=O)Nc2cc(C(F)(F)F)ccc2Cl)n1
  Mtb H37Rv: i
127: COc1ccc(C(=O)NC(=S)Nc2ccccc2N2CCCC2)cc1[N+](=O)[O-]
  Mtb H37Rv: 3%
128: COc1ccc(NC(=O)CSc2nc3ccccc3c(=O)n2-c2ccc(C)cc2)c(OC)c1
  Mtb H37Rv: i

Source: PubChem
